Mtb H37Rv – Mycobacterium tuberculosis H37Rv growth inhibition, cell based, confirmatory dose response (AID 1949) | inhibition, % at 10 µg/mL; hits with a dose series show IC50 in µg/mL | most inactive calls were filed without a number and no value below 0 was filed | 100,000 compounds, 1.6% hits;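 active means confirmed in a dose series; inconclusive means about 50% or more but not retested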;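 further: bacteria grown 7 days with compound before Alamar blue readout; 0% = untreated bacteria and 100% = reference antibiotic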
Active calls of the source: *; i = inactive; ? = inconclusive. This is a subset; the hit share may differ from the screen's.

SMILES	Mtb H37Rv
Cc1ccc(Cn2nnc(-c3ccccc3C)n2)cc1	3%
COc1ccc(C(C)NC(=O)c2csc3ccccc23)cc1OC (centres undefined)	i
COC(=O)c1cc(NC(=O)C2CN(S(=O)(=O)c3ccccc3)CCN2S(=O)(=O)c2ccccc2)ccc1Cl (centres undefined)	i
CCCNC(=O)Nc1ccc(Cl)c(C(=O)O)c1	1%
O=C1CC(NC23CC4CC(CC(C4)C2)C3)C(=O)N1c1ccc(N2CCOCC2)cc1 (centres undefined)	i
COc1ccc(S(=O)(=O)N(CC(=O)Nc2cccc(SC)c2)c2ccccc2)cc1	7%
CC(C)Cc1nc(SCC(=O)Nc2ccc(Br)cn2)n[nH]1	i
Cc1cc(C)c2c(CC(=O)N(CC#N)CC#N)coc2c1	i
Cc1c(Cl)cccc1NC(=S)N1CCN(C(=O)c2ccco2)CC1	i
CC(C)c1ccc(OCCN(C)C)cc1	i
Cc1ccc(NC(=O)CN2CCCC2)cc1	i
Cc1cccc(N2C(=O)CC(N3CCN(c4ccc(O)cc4)CC3)C2=O)c1 (centres undefined)	i
COc1ccc(C2CC(c3ccc(Cl)cc3Cl)Nc3ncnn32)cc1 (centres undefined)	41%
CCN(CC)S(=O)(=O)c1cc(C(=O)n2cccn2)c(Cl)cc1Cl	i
O=C(Cc1ccccc1)NCC1(c2ccccc2)CCOCC1	i
Cc1cc(S(=O)(=O)NCCCN2CCOCC2)c(C)cc1Cl	i
COc1ccc(NCc2cccnc2)cc1Cl	2%
CCC(Oc1ccccc1)C(=O)Nc1cc([N+](=O)[O-])ccc1OC (centres undefined)	4%
COc1cc(/C=C2/C(=O)NC(=O)N(c3ccc(Cl)cc3)C2=O)cc(Br)c1O	0%
COc1cc(SC)ccc1C(=O)NCCCn1ccnc1	i
COc1cccc(NS(=O)(=O)CCCCC(Cl)(Cl)Cl)c1	3%
COc1ccc(Cl)cc1NC(=O)COc1ccc(S(=O)(=O)NC2CCCCC2)cc1	i
O=C(O)CCSc1nnnn1C1CCCCC1	i
Cc1cc(OCC(=O)N(C)C)c2c(C)c(Cc3ccccc3)c(=O)oc2c1	i
CCOC(=O)c1c(NC(=O)OC)sc2c1CCCCC2	10%
CCc1cc2c(=O)oc(-c3ccc(Br)cc3)nc2s1	?
Cc1ccc(N(CC(=O)N2CCCCCC2)S(=O)(=O)c2ccc(Cl)cc2)cc1C	1%
Fc1cccc2c1NC(c1ccccn1)C1CC=CC21 (centres undefined)	0%
COC(=O)COc1cccc(NC(=O)c2cccc(C)c2)c1	2.9µg/mL*
CCOCC(=O)Nc1nc(-c2ccccc2)c(CC)s1	i
COCC(=O)Nc1nnc(Cc2ccc(OC)cc2)s1	i
O=C(COc1ccc(Cl)cc1Cl)Nc1cccc(-c2nc3ccccc3o2)c1	5%
O=c1c2ccccc2c2ccccc2c(=O)n1Cc1ccco1	i
O=Cc1cn(CC(=O)N2CCCC2)c2ccccc12	7%
COc1ccc(Cl)cc1N(CC(=O)Nc1ccc(C)c(Cl)c1)S(C)(=O)=O	i
COc1ccc(NC(=O)CN(CCc2ccccc2)S(=O)(=O)c2cc(Cl)ccc2Cl)cc1	4%
O=C(Cc1ccccc1)Nc1nnc(SCc2ccc(Cl)cc2)s1	i
CCOC(=O)Nc1ccc(S(=O)(=O)Nc2onc(C)c2C)cc1	i
Cc1cc(NS(=O)(=O)c2ccc(NC(=O)c3ccc(C)c(I)c3)cc2)no1	i
COc1cccc(S(=O)(=O)NCC(=O)N2CCCCCC2)c1	i
Cc1ccc(NC(=O)c2cccnc2C(=O)Nc2ccc(C)cc2)cc1	i
O=C(NCCOc1cccc(Cl)c1Cl)C(Cc1ccc(O)cc1)c1ccccc1 (centres undefined)	11%
COc1ccccc1NC(=O)c1cn(-c2ccccc2)nc1-c1ccc(F)cc1	1%
COc1cc(OC)c(/C=C2\C(=O)N(c3nc(-c4ccc(C)cc4)cs3)N=C2c2ccc([N+](=O)[O-])cc2)cc1Br	0%
Cc1ccc([N+](=O)[O-])c(OCCOCCN2CCc3ccccc3C2)c1	i
Cc1cc(C)cc(OCC(=O)Nc2ccccc2N2CCCCC2)c1	9%
O=[N+]([O-])c1nn(-c2ccccc2)[n+]([O-])c1N1CCCCCC1	2%
O=C(CN1C(=O)C2C3CCC(C3)C2C1=O)Nc1cccc(Cl)c1 (centres undefined)	i
CCN(CC)C(=O)COc1ccc(F)cc1	i
CSc1nsc(SCC(=O)Nc2nccs2)n1	i
COc1ccccc1NC(=O)c1cc[n+]([O-])cc1	i
CC(=O)c1ccc(NC(=O)c2ccc3nc(-c4ccccn4)c(-c4ccccn4)nc3c2)cc1	2%
CC1CC(C)CN(C(=O)Cn2cnc3c2c(=O)n(C)c(=O)n3C)C1 (centres undefined)	i
CC(=O)Nc1ccc(NC(=O)CSc2nncn2C)cc1	i
O=C(CSc1ccccc1)Nc1nnc(C(F)(F)F)s1	i
CC(Cc1ccccc1)N=C(N)/C(C#N)=C\c1[nH]c2ccccc2c1O (centres undefined)	28%
O=C(NCCCO)NC(=S)c1cccc2ccccc12	6%
c1ccc(-c2nc(N3CCCC3)nc3ccccc23)cc1	i
O=C(Nc1cccnc1)c1cc(-c2ccc(Cl)c(Cl)c2)nc2ccccc12	i
O=C(NCc1ccco1)Nc1cccc(Cl)c1	1%

Further results
SMILES	Mtb H37Rv
O=S(=O)(Nc1ccc(F)cc1)c1ccc(Cl)s1	i
CCOc1cc([N+](=O)[O-])ccc1NC(=O)C1CC(=O)N=C(N)S1 (centres undefined)	i
O=C1CCCN1CCCn1c(=S)[nH]c2ccccc2c1=O	i
CC(NC(=O)C(=O)NCc1ccc(F)cc1)c1ccccc1 (centres undefined)	i
CC(C)(C)c1csc(NC2=NS(=O)(=O)c3ccccc32)n1	i
Cc1ccc(NC(=O)C2C3C=CC(C3)C2C(=O)O)cc1[N+](=O)[O-] (centres undefined)	i
O=c1c2ccccc2nc(/C=C/c2ccc(F)cc2)n1-c1c(Cl)cccc1Cl	9%
O=C(Nc1ccccc1C#Cc1ccccc1)c1ccc(Br)cc1	i
CC(C)C(=O)Nc1cccc(NC(=S)NC(=O)Cc2ccc(Cl)cc2)c1	i
CCN(CC#CCCOC(C)=O)c1ccccc1	i
COc1ccc(CCNC(=O)c2ccc(NS(C)(=O)=O)cc2)cc1OC	i
CCn1c(SCC(=O)Nc2ccc(C)c(Cl)c2)nnc1-c1ccc(OC)cc1	3%
CCc1ccc(Oc2ncnc(N)c2[N+](=O)[O-])cc1	i
c1ccc(CCCc2nc(-c3ccccn3)no2)cc1	4%
O=C(Nc1ccc(I)cc1C(=O)N1CCOCC1)c1ccccc1Cl	i
CCC(C)Oc1ccccc1/C=C(\C#N)c1nc2ccccc2[nH]1 (centres undefined)	i
COc1cc(OC)c(NC(=O)COc2cccc3ccccc23)cc1Cl	i
O=C(NC1(C(F)(F)F)NC(=O)N(c2ccc(Cl)cc2)C1=O)c1cccnc1 (centres undefined)	i
O=C(Nc1ccc(C(=O)N2CCOCC2)cc1)C1C2CC3OC(=O)C1C3C2 (centres undefined)	0%
COc1cc2nc(NC(=O)c3ccccc3)[nH]c(=O)c2cc1OC	i
Cc1ccc(N2C(=O)CC(N(C)C3CCN(C)CC3)C2=O)cc1 (centres undefined)	i
CCOc1ccc(C2=C(C=O)C(c3ccc(C)cc3)c3ccccc3O2)cc1 (centres undefined)	11%
COc1cc(OC)cc(C(=O)Oc2ccc3c(=O)c(-c4ccccc4OC)coc3c2)c1	1%
CCn1c(SCC(=O)Nc2ccc(I)cc2C)nnc1-c1ccccc1C	i
CCOC(=O)c1c(C)[nH]c(NC(=O)Nc2ccccc2)c1C	i
Cc1ccc(Cl)cc1N1CCN(C(=O)c2ccc(F)cc2)CC1	7%
COc1ccc(S(=O)(=O)N2CCCc3ccccc32)cc1C(=O)O	i
Cc1nn2c3c(cnc2c1-c1ccc(Cl)cc1)C(=O)CC(c1ccco1)C3 (centres undefined)	1%
COc1ccc(S(=O)(=O)Nc2c(C)cccc2C)cc1Br	i
CC(C)NC(=O)c1ccccc1NC(=O)CN(c1ccc(F)cc1)S(=O)(=O)c1ccccc1	i
COc1cccc(C2CC(c3ccc(F)cc3)n3nc(N)nc3N2)c1 (centres undefined)	0%
COc1ccc(NC(=O)C(Cc2ccccc2)C(=O)Nc2ccc(OC)cc2OC)c(OC)c1	i
CC1CCc2c(sc(NC(=O)c3ccc(Cl)cc3)c2C(=O)O)C1 (centres undefined)	21%
O=S(=O)(NCc1ccccc1Cl)c1ccc(Br)cc1	2%
CC(=O)c1ccccc1NC(=O)c1ccc(Br)o1	i
COc1ccc(-n2c(C)nnc2SCC(=O)Nc2ccc(Cl)c(Cl)c2)cc1	i
Cc1occc1C(=O)Nc1nnc(-c2ccncc2)s1	i
O=C(Nc1nc(-c2ccc(F)cc2F)cs1)c1ccc(Cl)c(Cl)c1	i
Cc1c(NC(=O)CCc2ccccc2)cccc1-c1nc2ccccc2o1	i
O=C(NCc1ccccn1)c1ccccc1O	i

Given with each value named: 3 of the compounds above.
molecule: Cc1ccc(N2C(=O)CC(N(C)C3CCN(C)CC3)C2=O)cc1 (centres undefined)
  Mtb H37Rv = i

molecule: CCOc1ccc(C2=C(C=O)C(c3ccc(C)cc3)c3ccccc3O2)cc1 (centres undefined)
  Mtb H37Rv = 11%

molecule: COc1cc(OC)cc(C(=O)Oc2ccc3c(=O)c(-c4ccccc4OC)coc3c2)c1
  Mtb H37Rv = 1%

Nothing new here: entries from further up.
SMILES	Mtb H37Rv
Cc1occc1C(=O)Nc1nnc(-c2ccncc2)s1	i
O=C(Nc1nc(-c2ccc(F)cc2F)cs1)c1ccc(Cl)c(Cl)c1	i
Cc1c(NC(=O)CCc2ccccc2)cccc1-c1nc2ccccc2o1	i
O=C(NCc1ccccn1)c1ccccc1O	i

Further structures follow.
SMILES	Mtb H37Rv
CC1CCc2c(sc(NC(=O)c3cncc(Br)c3)c2C#N)C1 (centres undefined)	1%
COc1ccc(C(=S)N2CCCCC2)cc1C	i
CS(=O)(=O)N(Cc1ccc(C(=O)Nc2ccc(F)cc2F)cc1)c1ccccc1	i
CCNc1ccc2nonc2c1[N+](=O)[O-]	i
S=C(NCc1ccc2c(c1)OCO2)NC1CCCC1	i
COc1ccc(N2C(=O)NC(=O)/C(=C\c3cccs3)C2=O)cc1	i
O=C(CC(O)(c1ccccc1)C(F)(F)F)c1ccccc1 (centres undefined)	i
O=C(c1sc2cccc(F)c2c1Cl)N1CCCC1	i
O=C(NC1CCCCC1)c1ccccc1C(F)(F)F	i
COc1ccc(Cl)cc1NC(=S)N1CCN(c2ccccn2)CC1	4%
Cc1cc2oc(C(=O)Nc3cccc(Cl)c3Cl)c(C)c2cc1C	i
COc1ccc(Cl)cc1NC(=O)C(C)Oc1cccc(C)c1C (centres undefined)	i
O=C(NCC1CCCO1)C1CC(c2ccc(Cl)c(Cl)c2)=NO1 (centres undefined)	i
Cc1cc(OCC(=O)Nc2sc(Cc3ccccc3)c(C)c2C(N)=O)ccc1Br	i
COc1ccc(OC(C)C(=O)NCCC2=CCCCC2)cc1 (centres undefined)	4%
COC(=O)c1ccccc1NC(=O)NNC(=O)c1ccco1	49%
COc1ccc2c(c1)OCC/C2=N\OC(=O)c1ccc(Oc2ccccc2)cc1	20%
O=C(Nc1ccc2nsnc2c1)N1CCN(c2ccccc2)CC1	i
O=C(Nc1ccc2c(c1)OCCO2)C1CCN(C(=O)c2ccc(Br)cc2)CC1	i
CCOc1ccc(-c2nc(C#N)c(N3CCN(Cc4ccccc4)CC3)o2)cc1	i
O=C(CSc1nnc(CCCOc2ccc(Cl)cc2Cl)o1)NCCc1ccccc1	49%
O=C(Cn1c(-c2ccccc2)nc2sc3c(c2c1=O)CCCC3)N1CCc2ccccc21	i
CCC(CC)C(=O)Nc1ncc2c(n1)CC(c1ccc(OC)c(OC)c1)CC2=O (centres undefined)	i
O=C(CCCN1C(=O)CCC1=O)Nc1ccc2c(c1)OCCO2	i
COc1ccc(C(C)NC(=S)Nc2ccc(F)cc2F)cc1OC (centres undefined)	i
Cc1cc(C)cc(OCC(=O)Nc2ccc(S(=O)(=O)Nc3ccc(C)cc3C)cc2)c1	i
CCCCn1c(=N)n(CC(O)COc2ccccc2OC)c2ccccc21 (centres undefined)	0%
O=C(Nc1cc(Cl)ccc1Cl)C1CCN(S(=O)(=O)c2ccccc2)CC1	2%
OCc1nc2ccccc2n1CCCCOc1ccccc1	i
O=C(NC1CCCCC1)C(=S)N1CCOCC1	1%
CC(=O)c1cc(C)ccc1OC(=O)CCN1C(=O)c2ccccc2C1=O	i
O=C(NC(=S)Nc1ccc2oc(-c3ccccc3)nc2c1)c1cncc(Br)c1	i
Cc1nc2ccc(C(=O)O)cc2c2c1CC(C)S2 (centres undefined)	i
CC(C)OCCCNC(=O)c1ccc(N(C)S(C)(=O)=O)cc1	i
Cc1ccc(C(=O)N2CCN(c3ccc(NC(=O)c4ccc(OCc5ccccc5)cc4)cc3)CC2)cc1	i
Cc1ccc(N2OC3C(=O)NC(=O)C3C2c2ccc(Cl)cc2)cc1 (centres undefined)	i

Reprinted at random: 2 compounds from above.
SMILES	Mtb H37Rv
O=C(NC1CCCCC1)C(=S)N1CCOCC1	1%
CC(C)OCCCNC(=O)c1ccc(N(C)S(C)(=O)=O)cc1	i

Screening results as filed in PubChem BioAssay.
